# Source: PubChem (National Center for Advancing Translational Sciences (NCATS))
# NS1 function inh = influenza NS1 inhibition; S. cerevisiae slowed by influenza A NS1, growth recovery by OD600; Potency, µM (top dose mostly 46.1 µM), inactives show at the top dose activity, positive = more growth; actives 0.4% (n = 270,000); AID 2326; further: actives are rising curves; nearly all actives have a fitted effect of over 50% in size
#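 Growth recovery, yeast-based: influenza A NS1 expressed in S. cerevisiae causes slow growth, and suppressors are detected by OD600. The parent strain without NS1 is used as positive control.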
# Cruzain inh Det = cruzain (T. cruzi) inhibition with detergent | purified cruzain, Z-FR-AMC fluorescence, 0.01% Triton | Potency, µM, for inactives: max response, negative = inhibition, usual class: inhibitors | actives 0.43% (n = 200,000); active means well fitted curve in the direction sought with a large enough effect; inconclusive means small, poorly fitted or top-dose-only effect, or another doubt; inactive means no such curve, though single readings can be large; an effect the other way counts as inactive or inconclusive;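 further: plate controls were neutral wells for no effect and buffer without enzyme for full effect; nearly all actives have a fitted effect of over 40% in size; top concentration of the series not given in the record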
# Target sequence (P25779 123-467 limits assumed): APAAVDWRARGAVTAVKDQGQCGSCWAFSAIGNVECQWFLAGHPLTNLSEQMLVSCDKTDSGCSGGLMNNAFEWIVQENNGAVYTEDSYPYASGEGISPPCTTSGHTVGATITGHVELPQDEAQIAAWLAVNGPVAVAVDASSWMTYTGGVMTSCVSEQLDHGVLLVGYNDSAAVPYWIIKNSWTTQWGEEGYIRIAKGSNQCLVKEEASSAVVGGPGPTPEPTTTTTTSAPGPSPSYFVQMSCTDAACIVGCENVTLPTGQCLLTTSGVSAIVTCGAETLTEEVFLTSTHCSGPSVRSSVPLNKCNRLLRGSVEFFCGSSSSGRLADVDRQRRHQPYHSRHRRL
#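 In this qHTS format, compounds are incubated with 1.5 nM cruzain for 15 min at room temperature before 2 uM Z-FR-AMC is added. Release of AMC is followed at 360/450 nm, and progress is taken as the 60 s fluorescence difference.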
# SARS PLP yeast = inhibitors of SARS-CoV papain-like protease in yeast; S. cerevisiae expressing SARS-CoV PLpro, growth rescue; control for the full effect not named in the record; Potency, µM (top dose mostly 32.9 µM), for the others: top-dose activity, positive = growth rescue; actives 0.19% (n = 330,000); AID 485353; further: 0% is about no effect; nearly all actives have a fitted effect of over 55% in size; growth read by luminescence after 48 h
# LASV entry inh = inhibitors of Lassa virus binding or cell entry; Potency, µM (series often up to 37.9 µM), without a hit: at the top dose activity change, negative = inhibition, hits mostly inhibitors; actives 1.2% (n = 300,000); Lassa virus pseudotype entry inhibition, cell reporter; control for the full effect not named in the record; active means well fitted inhibition curve with a large enough effect; inconclusive means small, poorly fitted or top-dose-only effect, or effect the other way; inactive means flat fitted curve, though single readings scatter; tested in HEK293 cells; further: on the % scale 0 is the no-effect control and ±100 the full control effect; nearly all actives have a fitted effect of over 50% in size; luciferase read-out
# MARV entry inh = blocks Marburg virus binding to or entry into cells; Potency, µM (highest dose often 37.8 µM), inactives show top-dose activity change, negative = inhibition, most hits filed as inhibitors; AID 540276; actives 1.8% (n = 300,000); Marburg virus pseudotyped entry inhibition, cell reporter; control for the full effect not named in the record; about a third of the inactives were read at about 46 µM; active = well fitted inhibition curve with a large enough effect; inconclusive = small, poorly fitted or top-dose-only effect, or effect the other way; inactive = flat fitted curve, though single readings scatter; tested in HEK293 cells; about a fifth of its hits are not listed in these tables; further: on the % scale 0 is the no-effect control and ±100 the full control effect; luciferase read-out
# RE007 growth inh = less growth of the S. pombe RE007 Vpr strain | S. pombe RE007 Vpr strain, BacTiter-Glo ATP luminescence, 24 h; control for the full effect not named in the record | Potency, µM (series often up to 92.2 µM), for the others: top-dose activity change, negative = less growth | actives 0.21% (n = 360,000) | AID 651644; active = well fitted falling curve with a large enough effect; inconclusive = small, poorly fitted or top-dose-only effect; inactive = no such curve, though single readings can be large or run the other way;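 further: on the % scale 0 is the no-effect control and ±100 the full control effect; nearly all actives have a fitted effect of over 50% in size; the assay follows cell death caused by Vpr and the record does not say whether a fall means rescue or toxicity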
#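 Fission yeast strain RE007, carrying one chromosomally integrated HIV-1 vpr copy, was seeded at OD 0.01 in PMG+AL medium with 23 nL pinned compound. After 24 h at 30 °C and 99% humidity, viability was read by BacTiter-Glo luminescence.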
# Cruzain inh noDet = inhibitors of Trypanosoma cruzi cruzain without detergent; purified cruzain, Z-FR-AMC fluorescence, no detergent; Potency, µM, for the others: max response, negative = inhibition, most hits filed as inhibitors; actives 2.3% (n = 200,000); AID 1476; active means well fitted curve in the direction sought with a large enough effect; inconclusive means small, poorly fitted or top-dose-only effect, or another doubt; inactive means no such curve, though single readings can be large; an effect the other way counts as inactive or inconclusive;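 further: plate controls were enzyme without inhibitor for no effect and buffer without enzyme for full effect; nearly all actives have a fitted effect of over 40% in size; top concentration of the series not given in the record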
#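 Detergent-free condition (0.00005% Triton X-100) in acetate buffer pH 5.5 with DTT. 1.5 nM enzyme and compound were pre-mixed 15 min, then 2 uM Z-FR-AMC substrate added; reaction progress from fluorescence change between first and third reads (60 s).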
# StopGo reporter = FMDV 2A StopGo reporter, luciferase signal. human cells with a luciferase reporter of 2A StopGo recoding; control for the full effect not named in the record. Potency, µM (doses to about 57.9 µM), for the others: at the highest dose signal change, negative = less light. actives 1.2% (n = 410,000). AID 1159524; active = well fitted falling curve with a large enough effect; inconclusive = small, poorly fitted or top-dose-only effect; inactive = no such curve, though single readings can be large or run the other way; tested in HEK293T cells; further: on the % scale 0 is the no-effect control and ±100 the full control effect; nearly all actives have a fitted effect of over 45% in size; luciferase light after 4 h
# * = called active by the depositor; ? = inconclusive; · = not tested or not shown; & = joins results of further samples; [ ] = dose if it differs, or a comment. Unless noted, the call rests on the fitted dose curve; in most records, active means well fitted rising curve with a large enough effect; inconclusive means small, poorly fitted or top-dose-only effect; inactive means no such curve, though single readings can be large or run the other way. Potency means the concentration at half of the fitted maximal effect.
smiles	NS1 function inh	Cruzain inh Det	SARS PLP yeast	LASV entry inh	MARV entry inh	RE007 growth inh	Cruzain inh noDet	StopGo reporter
CCCNC(=O)c1c(CSc2ccccc2)noc1C(=O)NCc1ccccc1	-19%	·	-1%	·	·	28%	·	-6%
CC(=O)c1cccc(NC(=O)CCNS(=O)(=O)c2cccc(C(C)=O)c2)c1	-11%	-2.1%	5%	12%	9%	10%	6%	8%
COCCNC(=O)C1CCCN(S(=O)(=O)c2cccc3nsnc23)C1 (stereo unspecified)	25%	·	5%	4%[46.1 µM]	-11%[46.1 µM]	2%	·	4%
Cc1cc(C)n(-c2ccc(NC(=O)C3CCCCN3C(=O)c3ccoc3C)cc2)n1 (stereo unspecified)	2%	·	-7%	·	·	0%	·	-14%
CC(=O)c1cccc(OCc2cc(C(=O)N(C)Cc3ccc(C)o3)no2)c1	-2%	·	-6%	-11%	16%	-16%	·	9%
Nc1cc(=O)nc(SCC(=O)N2CCN(c3ccccc3)CC2)n1-c1ccc(F)cc1	27%	·	-6%	·	·	3%	·	6%
CCOC(=O)/C=C1\SCC(=O)N1CC(=O)NCCOC	·	·	2%	12%[46.1 µM]	-5%	-7%	·	6%
Oc1ccccc1C=Nc1cccc2ccccc12	7%	·	3%	·	·	-2%	·	-2%
COc1cc(NC(=O)Cn2ncc3c([nH]c4ccc(C)cc43)c2=O)cc(OC)c1OC	·	-0.1%	·	16%[46.1 µM]	·	·	7%	-8%
COc1ccc(S(=O)(=O)NCC2CCCN(Cc3ccccc3C)C2)cc1 (stereo unspecified)	2%	·	0%	·	·	-14%	·	10%
Cc1cc(C)c(NC(=O)Cn2nnc(C(=O)Nc3ccc(F)cc3F)c2N)c(C)c1	-7%	1.3%	3%	7%[46.1 µM]	·	-11%	13%	-1%&7%
O=C(Oc1cccc2ccccc12)c1ccncc1	-4%	-2.9%	-16%	12%	19%	-3%	-3%	15%
COc1cccc(C(=O)N(Cc2cc3cc(C)ccc3[nH]c2=O)C(C)C)c1	-18%	0.2%	1%	-1%	-19%	24%	-1%	?
COC(=O)[C@H](CC(C)C)NC(=O)N1CCN(c2cccc(C(F)(F)F)c2)CC1	3%	-0.2%	-12%	?	-22%	-9%	?	-25%
c1ccc2c(SCc3cn4cccnc4n3)ncnc2c1	-12%	-4.9%	1%	22%	-1%	13%	-10%	13%
CCn1c(C(=O)N2CCC(C(=O)NCCCOC)CC2)cc2sccc21	·	-1.9%	·	·	3%[46.1 µM]	·	2%	-21%
C/C(=N\NC(=O)c1ccccc1OCCOc1ccccc1)c1ccccc1F	·	·	1%	?	11µM*	12%	·	-21%
CCCCn1c(-c2cccs2)nc2nc3ccccc3nc21	-28%	?	-11%	?	-18%	-14%	?	0%
S=c1[nH]nc(-c2ccccc2Cl)n1/N=C/C=C/c1ccco1	?	·	1%	-18%	2%[46.1 µM]	2%	·	-14%
CCOC(=O)c1sc(NC(=O)c2ccccc2C(=O)O)c(C(=O)OCC)c1C	11%	·	0%	·	·	10%	·	-16%
O=C(Nc1cccc(Cl)c1)OCCOC(=O)Nc1cccc(Cl)c1	·	·	·	?	?	?	·	-15%
COc1ccc(CNC(=O)COc2ccc(S(=O)(=O)N3CCCCC3)cc2)cc1	-10%	·	3%	-13%	2%	-6%	·	-5%
COc1ccc(CCNC(=O)CN2C(=O)c3ccccc3S2(=O)=O)cc1OC	-4%	-2.2%	-5%	16%	2%	10%	-3%	22%
O=C(N/N=C/c1ccc(Cl)c([N+](=O)[O-])c1)c1cc(-c2ccc3c4c(cccc24)CC3)n[nH]1	5µM*	·	1%	6.3µM*	?	0%	·	-26%
CC1CN(c2nc3c(c(=O)n(Cc4ccc(Cl)c(Cl)c4)c(=O)n3C)n2C)CC(C)O1 (stereo unspecified)	-118%	-2.6%	2%	?	?	-9%	?	-27%
CC(C)(C)C1CCC(=NNC(=O)c2ccccc2-n2cccc2)CC1 (stereo unspecified)	12%	-0.5%	-7%	11%	4%	2%	1%	-7%
O=c1c2ccccc2c(=O)n2n1Cc1ccccc1C2	-54%	·	·	-10%[46.1 µM]	?	19%	·	14%
COc1ccc(C(C)(C)C)cc1NC(=O)COC(=O)CSCc1c(C)noc1C	·	·	1%	-2%[46.1 µM]	1%	30%	·	-5%
COc1ccc([N+](=O)[O-])cc1/C=N/NC(=O)CNC(=O)C(c1ccccc1)c1ccccc1	-3%	0.6%	8%	-1%	14%	1%	0%	-17%
COC(=O)C1=C(C(=O)OC)[C@@H]2Nc3ccccc3[C@@]23C[C@@H](C(=O)OC)N(C(C)=O)C3=N1	2%	·	0%	·	·	11%	·	-4%
Cc1c(/C=N/NC(N)=O)c2ccccn2c1C(=O)c1ccncc1	0%	·	0%	·	·	-10%	·	-24%
CCCOc1ccc(N/C=C/C(=O)c2ccc(OC)c(OC)c2)cc1	9%	·	-1%	?	-3%[46.1 µM]	-2%	·	-5%
O=C(N/N=C/c1ccco1)c1ccccc1OCc1ccccc1Cl	-33%	-8.9%	-45%	0%	?	10%	-11%	-29%
Nc1nc(-c2ccc(Br)cc2)cs1	-103%	-5.9%	-33%	?	7%	-18%	-8%	-6%
CC1CN(C(=O)CCC(=O)NC(C)c2ccccc2)c2cc(Cl)ccc2O1 (stereo unspecified)	-42%	·	1%	·	·	-6%	·	-22%
CC1(C)CC2CC(C)(CN2S(=O)(=O)c2cccc(C(=O)OCC(=O)NC(N)=O)c2)C1 (stereo unspecified)	·	·	-2%	9%	-13%[46.1 µM]	-9%	·	4%
CC(=O)N(c1cccc(Br)c1)c1nc(C)cc(C)c1C#N	3%	·	0%	1%	0%[46.1 µM]	5%	·	-4%
Cn1c(SCC(=O)NCCc2ccccc2)nc2c([nH]c3ccccc32)c1=O	9%	·	0%	-23%	6%[46.1 µM]	-13%	·	9%
CCCCC(=O)Nc1ccc(C(=O)OCc2cc(=O)n3ccsc3n2)cc1	·	-7.4%	·	-17%[46.1 µM]	·	·	-2%	-2%
COc1ccc(C(=O)CCC(=O)Nc2cccnc2)cc1	·	·	2%	9%	5%[46.1 µM]	10%	·	-6%
CCC(=O)N1CCc2cc(Br)cc(S(=O)(=O)N3CCCC(C(=O)NCc4cccc(OC)c4)C3)c21 (stereo unspecified)	·	1.4%	·	12%[46.1 µM]	-25%[46.1 µM]	·	?	9%
CCOC(=O)C1=C(COC(=O)c2cc(Br)c(Br)s2)NC(=O)NC1C (stereo unspecified)	·	·	-7%	-6%	0%	2%	·	-13%
CCOC(=O)N1CCN(S(=O)(=O)N2CCCC(C(=O)NC(C)c3ccccc3)C2)CC1 (stereo unspecified)	-20%	·	-2%	·	·	1%	·	-8%
CN(c1ccccc1)S(=O)(=O)c1cccc(NC(=O)Nc2ccc(Cl)cc2C#N)c1	25%	-6.8%	15%	1%	0%	-17%	13%	-22%
O=[N+]([O-])c1cnccc1Nc1ccc(Cl)cc1	-2%	·	-1%	2%	-14%	-4%	·	-29%
Cc1ccc(NC(=S)Nc2ccc3[nH]c(=O)[nH]c3c2)cc1	0%	·	1%	·	·	2%	·	?
CC(c1ccccc1)C1CC(=O)N(Cc2ccccc2)C1=O (stereo unspecified)	-9%	·	1%	5%[46.1 µM]	-17%[46.1 µM]	4%	·	-13%
Cc1nnc(N2CCC(C(=O)N3CCCCC3)CC2)c2nn(-c3ccccc3)c(C)c12	·	-3.1%	·	-6%[46.1 µM]	·	·	4%	3%
CCn1c(SCC(=O)Nc2oc(-c3ccccc3)c(-c3ccccc3)c2C#N)nnc1-c1ccco1	20%	-1.9%	-2%	0%	?	-4%	?	-22%
CCOC(=O)CSc1ccc(C(=O)NCCN2CCOCC2)cc1[N+](=O)[O-]	2%	·	2%	-12%[46.1 µM]	22%[46.1 µM]	4%	·	-4%
O=C(Cn1cnc2ccccc2c1=O)Nc1cccc(-c2nnc3n2CCCCC3)c1	8%	1.5%	-14%	-20%	?	0%	-6%	-26%
NNC(=O)/C=C/c1ccc(Cl)cc1Cl	·	·	-1%	19%[46.1 µM]	-19%[46.1 µM]	-5%	·	8%
Cc1ccc2c(c1)c1c(n2CC(O)CN2CCCCCC2)CCCC1 (stereo unspecified)	-3%	·	-1%	?	6.3µM*	?	·	-28%
Cc1ccc(-c2nc3nc(C)cc(N4CCN(c5cccc(C)c5C)CC4)n3n2)cc1	·	-1.6%	·	11%[46.1 µM]	-24%[46.1 µM]	·	2%	14%
CC(C)c1ccc(NC(=O)Nc2cc3sccc3n2C)cc1	15%	-8.5%	-3%	·	·	4%	7.9µM*	10%
O=C(CN(C(=O)CCC(=O)Nc1nccs1)c1ccccc1F)NCCc1ccccc1	-7%	·	1%	-20%	11%[46.1 µM]	4%	·	-3%
O=C(NCc1ccccc1)c1ccc(S(=O)(=O)C(F)F)cc1	6%	1.4%	-6%	?	-25%	-16%	13%	-11%
O=[N+]([O-])c1cccc(/C=N/N2CCN(Cc3ccc(Cl)cc3)CC2)c1	0%	·	1%	23%[46.1 µM]	?	0%	·	-14%
CSc1ccc(S(=O)(=O)NCC(=O)OCC(=O)N2CCCCC2C)cc1[N+](=O)[O-] (stereo unspecified)	·	·	-2%	-2%	23%	-2%	·	-1%
Cc1cc(NC(=O)CSc2nc3[nH]c(=O)cc(O)c3s2)ccc1Br	·	·	-4%	4%	-5%	-23%	·	-23%
COc1ccc(NC(=O)c2cn(CCC#N)nc2-c2ccccc2)cc1	-2%	·	4%	·	·	14%	·	10%
CCOC(=O)Cn1c(-c2cccnc2Cl)nc2ccccc21	10%	6.5%	1%	16%	-7%	8%	2%	9%
COc1ccc(C2(O)C(=O)Nc3ccccc32)cc1 (stereo unspecified)	4%	·	-1%	?	?	-1%	·	-8%
